Source: PubChem
FGF22 binding: shifts melting point of recombinant human FGF22; Q9HCT0; recombinant FGF22 thermal shift, SYPRO orange fluorescence; percent of sucrose octasulfate shift, DMSO zero; calls only at 9.99 µM; 340,000 tested, 1.5% active; AID 651658;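 active = melting point raised past a set limit in the mean and every replicate; three in four hits are not shown here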
Target sequence (Q9HCT0 whole entry, looked up): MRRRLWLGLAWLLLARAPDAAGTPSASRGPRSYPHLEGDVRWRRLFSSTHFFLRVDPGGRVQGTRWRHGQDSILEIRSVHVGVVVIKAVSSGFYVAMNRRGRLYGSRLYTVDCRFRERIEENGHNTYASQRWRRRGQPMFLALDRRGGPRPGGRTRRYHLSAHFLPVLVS
rRNA inh HTS: selective bacterial rRNA inhibition in E. coli; 350,000 tested, 1.6% active; GFP signal change (wild-type ribosome), % (no concentration beside the values); AID 720706; E. coli WT GFP vs humanized-ribosome RFP mutants, fluorescence, 24 h; hits give low values; DMSO median 0, no signal -100;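 active = significant combined selectivity score with lowered wild-type GFP, culture density cut under 30%, mutant RFP and density less affected; inactive = any of these conditions unmet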; note: one replicate is shown; some compounds called inactive have numbers as strong as hits
AF4-AF9 inh: MLL-AF4/AF9 protein interaction inhibition. P42568. AlphaScreen, biotin-AF4 peptide binding to FLAG-AF9. inhibition, % at 10 µM. 350,000 tested, 0.47% active. AID 651704;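 active = every replicate reaching a set inhibition limit, whatever the replicate mean, cut at about 25% in these data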;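 note: 0% = plate neutral control median and 100% = total signal loss; the record names both 10 and 1 µM as test concentration; the first replicate is given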
Target sequence (P42568 whole entry, looked up): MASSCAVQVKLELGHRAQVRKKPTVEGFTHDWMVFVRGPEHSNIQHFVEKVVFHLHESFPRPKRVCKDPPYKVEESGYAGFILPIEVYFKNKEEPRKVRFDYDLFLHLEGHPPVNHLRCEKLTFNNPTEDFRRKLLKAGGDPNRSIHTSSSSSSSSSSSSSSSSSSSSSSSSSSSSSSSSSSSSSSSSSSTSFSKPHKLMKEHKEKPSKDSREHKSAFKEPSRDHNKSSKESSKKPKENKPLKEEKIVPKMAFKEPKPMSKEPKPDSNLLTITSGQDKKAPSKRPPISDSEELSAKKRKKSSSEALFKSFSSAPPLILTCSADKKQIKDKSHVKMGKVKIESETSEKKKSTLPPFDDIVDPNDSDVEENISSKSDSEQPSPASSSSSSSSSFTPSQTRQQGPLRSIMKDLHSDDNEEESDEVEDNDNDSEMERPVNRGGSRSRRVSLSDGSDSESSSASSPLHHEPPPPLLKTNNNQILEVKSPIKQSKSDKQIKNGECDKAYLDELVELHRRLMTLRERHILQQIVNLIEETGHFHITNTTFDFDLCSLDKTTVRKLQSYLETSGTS
rRNA inh HTS OD600: further read-out of rRNA inh HTS, marked with its call; OD600 change, %; measured here: OD600 growth;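 optical density of the mix in the first replicate; 0 = DMSO median and -100 = no signal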
rRNA inh HTS RFP: recorded beside rRNA inh HTS, whose call it bears; RFP signal change, %; measured here: RFP humanized mutant strains;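 first replicate; 0 = DMSO median and -100 = no signal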
An asterisk follows results filed as active; i = inactive; & = joins results of further samples. These rows are one share of the data; rates above refer to the full screens.

SMILES	FGF22 binding	rRNA inh HTS	rRNA inh HTS OD600	rRNA inh HTS RFP	AF4-AF9 inh
Cc1noc(C)c1S(=O)(=O)N(C)C[C@H]1OCCCC[C@@H](C)Oc2ccc(NS(=O)(=O)c3cccs3)cc2C(=O)N([C@H](C)CO)C[C@@H]1C	i	0	2	0.8	-3.2
O=C(Nc1ccccc1)c1cc(C2CCCN(C(=O)C3CC3)C2)on1 (stereo not given)	i	-5	5	-5.0	-3.2
COc1ccc(S(=O)(=O)N[C@H]2CC[C@@H](CCNC(=O)Cc3ccccn3)O[C@H]2CO)cc1	i	-1	-4	2.3	0.2
C[C@@H]1CN([C@@H](C)CO)C(=O)Cc2cc(NC(=O)Nc3ccc4c(c3)OCO4)ccc2O[C@H]1CN(C)Cc1ccc(Cl)c(Cl)c1	i	-1	-10	-0.3	3.3
COc1ccc(S(=O)(=O)N(C)C[C@H]2Oc3ccc(NC(=O)CCCCCC(=O)Nc4ccccc4N)cc3CC(=O)N([C@@H](C)CO)C[C@H]2C)cc1	i	-3	11	-1.2	-1.4
COc1ccc(NC(=O)Nc2cccc3c2O[C@@H](CN(C)C(=O)NC2CCCCC2)[C@@H](C)CN([C@H](C)CO)C3=O)cc1	i	-4	-3	0.1	1.9
C[C@H]1CN([C@@H](C)CO)C(=O)c2cc(NC(=O)C3CC3)ccc2O[C@@H]1CN(C)Cc1ccc(C(F)(F)F)cc1	i	-2	-17	1.5	0.7
C[C@@H]1CN([C@H](C)CO)C(=O)c2cc(NC(=O)Nc3ccc(F)cc3)ccc2O[C@@H]1CN(C)Cc1ccccc1	i	-1	-7	1.5	-7.2
C[C@@H]1CN([C@@H](C)CO)C(=O)CCCn2cc(nn2)CO[C@@H]1CN(C)S(=O)(=O)c1ccccc1	i	5	0	-0.7	-2.6
CC(=O)c1ccc(Nc2nc(C(N)COCc3ccccc3)cs2)cc1 (stereo not given)	i	-1	0	-0.3	-21
CN1CCN(C(=O)C[C@H]2CC[C@H]3[C@@H](COC[C@@H](O)CN3C(=O)c3ccc(F)cc3)O2)CC1	i	-1	10	0.7	-1.2
c1ccc(COc2cccc(-c3cc4nc(NCCOc5ccccc5)ccn4n3)c2)cc1	i	14	19	49	1.0
O=C(C[C@@H]1C=C[C@@H](NS(=O)(=O)c2ccc(F)cc2)[C@@H](CO)O1)N1CCC(Cc2ccccc2)CC1	i	-4	-17	-3.6	-1.7
O=C(OC1CC2CC1[C@H]1CCCCN1C2=O)N1CCN(c2ccccc2)CC1 (stereo not given in full)	i	9	10	4.7	1.1
CO[C@@H]1CN(C)C(=O)c2ccc(NS(=O)(=O)c3ccccc3)cc2OC[C@H](C)N(C(=O)NC(C)C)C[C@@H]1C	i	0	-3	0.8	-0.6
C[C@@H]1CCCCO[C@H](CN(C)C(=O)Nc2ccc3c(c2)OCO3)[C@H](C)CN([C@H](C)CO)C(=O)c2cc(NC(=O)C3CCCCC3)ccc2O1	i	-1	2	-0.8	2.5
C[C@H]1CN([C@@H](C)CO)S(=O)(=O)c2ccc(C#CC3CCCC3)cc2O[C@@H]1CN(C)Cc1cccnc1	i	-14	-41	7.6	7.2
COc1cccc(NC(=O)N(C)C[C@H]2OCc3ccccc3-c3ccccc3C(=O)N([C@@H](C)CO)C[C@H]2C)c1	i	0	-5	-1.4	-5.7
CN(C)CC(=O)Nc1ccc2c(c1)[C@@H]1C[C@@H](CC(=O)NCc3ccccc3)O[C@@H](CO)[C@@H]1O2	i	3	2	-1.3	-1.4
CC(C)CC#Cc1ccc2c(c1)O[C@H](CN(C)Cc1ccc3c(c1)OCO3)[C@@H](C)CN([C@H](C)CO)S2(=O)=O	i	4	5	2.5	0.0
Fc1ccc(-c2ccc3c(c2)C2CC3CCN2)cc1 (stereo not given)	i	6	-1	-3.0	3.2
C[C@H](CO)N1C[C@H](C)[C@@H](CN(C)S(=O)(=O)c2cn(C)cn2)Oc2ccc(NS(=O)(=O)c3cn(C)cn3)cc2CC1=O	i	-1	3	0.5	-0.9
CCCNC(=O)N(C)C[C@@H]1Oc2cc(-c3ccccc3F)ccc2S(=O)(=O)N([C@H](C)CO)C[C@@H]1C	i	-7	-13	-1.1	1.1
COC(=O)CCCC[C@@H]1O[C@H](CCc2ccccc2)Cc2[nH]c(=S)[nH]c(=O)c21	i	-34	-34	-7.2	-7.5
O=C(NCC[C@@H]1CC[C@H](NC(=O)c2cccnc2)[C@H](CO)O1)Nc1ccc(C(F)(F)F)cc1	i	1&-64	0&-80	1.7&-25	13

4 compounds drawn at random from those above, as already listed:
SMILES	FGF22 binding	rRNA inh HTS	rRNA inh HTS OD600	rRNA inh HTS RFP	AF4-AF9 inh
C[C@@H]1CN([C@H](C)CO)C(=O)c2cc(NC(=O)Nc3ccc(F)cc3)ccc2O[C@@H]1CN(C)Cc1ccccc1	i	-1	-7	1.5	-7.2
O=C(NCC[C@@H]1CC[C@H](NC(=O)c2cccnc2)[C@H](CO)O1)Nc1ccc(C(F)(F)F)cc1	i	1&-64	0&-80	1.7&-25	13
C[C@H]1CN([C@@H](C)CO)C(=O)c2cc(NC(=O)C3CC3)ccc2O[C@@H]1CN(C)Cc1ccc(C(F)(F)F)cc1	i	-2	-17	1.5	0.7
C[C@@H]1CN([C@@H](C)CO)C(=O)Cc2cc(NC(=O)Nc3ccc4c(c3)OCO4)ccc2O[C@H]1CN(C)Cc1ccc(Cl)c(Cl)c1	i	-1	-10	-0.3	3.3

Further results
SMILES	FGF22 binding	rRNA inh HTS	rRNA inh HTS OD600	rRNA inh HTS RFP	AF4-AF9 inh
C[C@@H]1CN([C@@H](C)CO)C(=O)c2cccc(NC(=O)C3CCOCC3)c2O[C@H]1CN(C)C	i	5	2	2.3	-1.2
C[C@H](CO)N1C[C@H](C)[C@@H](CN(C)CC2CC2)Oc2cc(-c3cccnc3)ccc2S1(=O)=O	i	-3	-9	-1.7	0.5
COC(=O)C[C@@H]1C[C@@H]2c3cc(NC(=O)Nc4ccccc4F)ccc3O[C@@H]2[C@@H](CO)O1	i	-3	-1	7.0	12
O=C(NCC1CC1)[C@@H]1N[C@@H]2c3ccc(C4=CCCCC4)c(=O)n3C[C@@H]2[C@H]1CO	i	-4	-14	-1.1	-14
CN1CCN(C(=O)C[C@H]2C=C[C@@H](NC(=O)Cc3ccccn3)[C@@H](CO)O2)CC1	i	3	3	-2.0	-2.7
CCCCCCCCN1C(=O)[C@H](CC(=O)NCCCN2CCCC2=O)C[C@@]2(C(=O)OCC)CCCC=C12	i	-39	-62	5.4	-0.5
C[C@@H]1CN([C@@H](C)CO)C(=O)c2cc(NC(=O)NC3CCCCC3)ccc2O[C@H]1CN(C)S(=O)(=O)c1ccc(F)cc1	i	-3	-3	0.3	-0.8
C[C@H](CO)N1C[C@H](C)[C@@H](CN(C)S(=O)(=O)c2ccc(F)cc2)Oc2ncc(-c3cccc(C(=O)N(C)C)c3)cc2C1=O	i	-14	-4	-5.8	-0.7
COc1ccccc1-c1ccc2c(c1)O[C@H](CN(C)C(=O)Nc1cccc(F)c1)[C@H](C)CN([C@H](C)CO)S2(=O)=O	i	0	-6	1.2	2.0
COc1ccc(S(=O)(=O)N(C)C[C@@H]2Oc3ccc(NC(=O)CCCN(C)C)cc3CC(=O)N([C@@H](C)CO)C[C@@H]2C)cc1	i	5	5	1.7	-2.3
C[C@H]1CN([C@@H](C)CO)C(=O)c2cc(C#CC(C)(C)O)cnc2O[C@@H]1CN(C)C(=O)CN(C)C	i	5	-5	-3.4	-0.3
CO[C@H]1CN(C)C(=O)c2cc(NC(=O)Nc3ccccc3F)ccc2OC[C@H](C)N(CCC(F)(F)F)C[C@@H]1C	i	1	3	5.5	0.8
CN1C(=O)c2cc(NC(=O)c3cscn3)ccc2OC[C@@H]2O[C@H](CC(=O)N3CCOCC3)CC[C@H]21	i	2	9	0.1	-2.8
CC(C)C[C@H]1CN([C@@H](CC(C)C)CN2CCC[C@H]2CN2C(=O)C(=O)NC[C@@H]2Cc2ccc(O)cc2)C(=O)C(=O)N1CCc1ccccc1	i	-37	-57	-7.4	0.2
Cc1cccc(C)c1NC(=O)C1C(c2ccc3c(c2)OCO3)=Nc2ccccc2N1C(=O)c1cccc2ccccc12 (stereo not given)	i	28	25	16	1.5
Cc1ccc(S(=O)(=O)N2C[C@@H](O)COC[C@H]3O[C@@H](CC(=O)NCc4ccc5c(c4)OCO5)CC[C@@H]32)cc1	i	-10	1	-0.5	4.7
CC(=O)N(O)CCCCCNC(=O)CCC(=O)N(O)CCCCCNC(=O)CCC(=O)N(O)CCCCCNC(=O)CCC(=O)O	i	4	3	-1.8	-17
C[C@@H]1CN([C@@H](C)CO)C(=O)Cc2cc(NC(=O)Nc3ccccc3)ccc2O[C@H]1CN(C)Cc1ccc(-c2ccccc2)cc1	i	0	0	3.7	-0.2
CCCCN1C(=O)C(CC(=O)NC(c2ccccc2)c2ccccc2)CC(C(=O)N2CCOCC2)=C1C (stereo not given)	i	9	1	3.0	-3.8
C[C@H]1CN([C@@H](C)CO)C(=O)c2cccc(N(C)C)c2O[C@@H]1CN(C)Cc1ccncc1	i	2	10	-0.9	-1.0
CCCNC(=O)C1(C)CCCN(Cc2ccc(C#N)cc2)C1 (stereo not given)	i	5	4	-7.7	1.9
CCCCN1CC(N2CCCC2)CS1(=O)=O (stereo not given)	i	18	14	0.3	-6.5
C[C@@H]1CN([C@H](C)CO)C(=O)c2cc(NS(=O)(=O)c3cccs3)ccc2O[C@@H]1CN(C)S(=O)(=O)c1ccccc1	i	-2	-9	1.4	-5.4
COCC#Cc1ccc2c(c1)O[C@H](CN(C)Cc1ccccc1)[C@H](C)CN([C@H](C)CO)S2(=O)=O	i	-2	-14	1.1	4.1
CN(C)CC(=O)Nc1ccc2c(c1)[C@@H]1C[C@H](CC(=O)NCc3ccc(-c4ccccc4)cc3)O[C@H](CO)[C@@H]1O2	i	-8	-10	1.2	6.7

New compounds follow.
SMILES	FGF22 binding	rRNA inh HTS	rRNA inh HTS OD600	rRNA inh HTS RFP	AF4-AF9 inh
CN(C)CCNC(=O)c1cccc(-c2cnc3c(NC=O)cc(-c4ccc(S(C)(=O)=O)cc4)cn23)c1	i	5	9	-1.0	9.2
C[C@@H]1CCCCO[C@H](CN(C)C(=O)c2ccccc2)[C@H](C)CN([C@@H](C)CO)C(=O)c2cc(N(C)C)ccc2O1	i	-3	3	-1.3	8.2
O=C(Nc1cccc(Cl)c1)c1csc([C@H]2C[C@H](O)[C@@H](CO)O2)n1	i	12	13	0.4	1.3
CO[C@H]1CN(C)C(=O)c2ccc(NS(=O)(=O)c3ccc(F)cc3)cc2OC[C@@H](C)NC[C@@H]1C	i	3	2	0.6	-15
CCNC(=O)C[C@@H]1CC[C@@H]2[C@H](COc3ccc(NS(C)(=O)=O)cc3C(=O)N2C)O1	i	3	0	-0.7	-3.1
C[C@@H]1CN([C@@H](C)CO)C(=O)Cc2cc(NS(C)(=O)=O)ccc2O[C@H]1CN(C)C(=O)Nc1ccc2c(c1)OCO2	i	2	5	-1.8	-3.4
O=C(N[C@@H]1CC[C@H](CCNS(=O)(=O)c2ccc(Cl)cc2)O[C@@H]1CO)c1cccnc1	i	4	-6	-2.9	1.4
C[C@H]1CN([C@@H](C)CO)C(=O)c2cc(C#CCN(C)C)cnc2O[C@H]1CN(C)Cc1ccccc1F	i	1	1	-3.7	2.9
COC(=O)c1sc(S(=O)(=O)Oc2ccccc2NC(C)=O)c(C(=O)OC)c1C	i	-1	0	1.4	-6.1
O=C(N[C@@H]1c2ccccc2CC[C@@H]1OCc1ccccc1)c1ccc(C(F)(F)F)cc1	i	15	9	0.3	-4.5
COc1ccccc1Cc1c(C2CCCCC2)nc2c(C)cc(Br)cn12	i	-3	6	6.7	1.5
CC(C)NC(=O)N(C)C[C@@H]1Oc2ccc(NC(=O)Cn3cnnn3)cc2CC(=O)N([C@H](C)CO)C[C@H]1C	i	2	6	0.2	-1.9
C[C@@H]1CN([C@@H](C)CO)C(=O)c2cc(NC(=O)C3CCCCC3)ccc2O[C@@H](C)CCCCO[C@@H]1CN(C)Cc1ccc2c(c1)OCO2	i	-11	-12	1.9	5.7
C/C=C/c1ccc2c(c1)[C@@H]1[C@@H](CCN1S(=O)(=O)c1ccc(C)cc1)[C@@H](CO)N2	i	0	11	-3.5	0.5
C[C@H]1CCCCO[C@@H](CN(C)C(=O)Nc2ccc3c(c2)OCO3)[C@@H](C)CN([C@@H](C)CO)C(=O)c2cc(NS(=O)(=O)c3ccccc3)ccc2O1	i	0	4	3.5	2.9
Cc1cccc(S(=O)(=O)N[C@@H]2CC[C@H](CCNS(=O)(=O)c3ccccc3F)O[C@H]2CO)c1	i	1	1	-0.2	-2.7
C[C@@H]1CCCCO[C@H](CN(C)Cc2ccccc2)[C@H](C)CN([C@H](C)CO)C(=O)c2cc(NC(=O)Cc3ccccc3)ccc2O1	i	1	-5	-0.4	9.4

No new results follow: 2 of the compounds above.
SMILES	FGF22 binding	rRNA inh HTS	rRNA inh HTS OD600	rRNA inh HTS RFP	AF4-AF9 inh
COC(=O)c1sc(S(=O)(=O)Oc2ccccc2NC(C)=O)c(C(=O)OC)c1C	i	-1	0	1.4	-6.1
O=C(N[C@@H]1c2ccccc2CC[C@@H]1OCc1ccccc1)c1ccc(C(F)(F)F)cc1	i	15	9	0.3	-4.5
